NPR1 antag: antagonists of human natriuretic peptide receptor Npr1. HEK293 hNpr1 GloSensor cGMP, ANP-stimulated luminescence. Potency, µM (highest dose often 46.3 µM), without a hit: at the highest dose activity change, negative = inhibition, actives largely listed as inhibitors. hit rate 1.6% among 76,000. AID 1347048; active = well fitted inhibition curve with a large enough effect; inconclusive = small, poorly fitted or top-dose-only effect; inactive = no such curve, though single readings can be large or run the other way;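 further: nearly all actives have a fitted effect of over 60% in size; nearly all hits also lower the signal before the agonist is added; a reference antagonist and vehicle were the controls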
Target sequence (P16066 whole entry, looked up): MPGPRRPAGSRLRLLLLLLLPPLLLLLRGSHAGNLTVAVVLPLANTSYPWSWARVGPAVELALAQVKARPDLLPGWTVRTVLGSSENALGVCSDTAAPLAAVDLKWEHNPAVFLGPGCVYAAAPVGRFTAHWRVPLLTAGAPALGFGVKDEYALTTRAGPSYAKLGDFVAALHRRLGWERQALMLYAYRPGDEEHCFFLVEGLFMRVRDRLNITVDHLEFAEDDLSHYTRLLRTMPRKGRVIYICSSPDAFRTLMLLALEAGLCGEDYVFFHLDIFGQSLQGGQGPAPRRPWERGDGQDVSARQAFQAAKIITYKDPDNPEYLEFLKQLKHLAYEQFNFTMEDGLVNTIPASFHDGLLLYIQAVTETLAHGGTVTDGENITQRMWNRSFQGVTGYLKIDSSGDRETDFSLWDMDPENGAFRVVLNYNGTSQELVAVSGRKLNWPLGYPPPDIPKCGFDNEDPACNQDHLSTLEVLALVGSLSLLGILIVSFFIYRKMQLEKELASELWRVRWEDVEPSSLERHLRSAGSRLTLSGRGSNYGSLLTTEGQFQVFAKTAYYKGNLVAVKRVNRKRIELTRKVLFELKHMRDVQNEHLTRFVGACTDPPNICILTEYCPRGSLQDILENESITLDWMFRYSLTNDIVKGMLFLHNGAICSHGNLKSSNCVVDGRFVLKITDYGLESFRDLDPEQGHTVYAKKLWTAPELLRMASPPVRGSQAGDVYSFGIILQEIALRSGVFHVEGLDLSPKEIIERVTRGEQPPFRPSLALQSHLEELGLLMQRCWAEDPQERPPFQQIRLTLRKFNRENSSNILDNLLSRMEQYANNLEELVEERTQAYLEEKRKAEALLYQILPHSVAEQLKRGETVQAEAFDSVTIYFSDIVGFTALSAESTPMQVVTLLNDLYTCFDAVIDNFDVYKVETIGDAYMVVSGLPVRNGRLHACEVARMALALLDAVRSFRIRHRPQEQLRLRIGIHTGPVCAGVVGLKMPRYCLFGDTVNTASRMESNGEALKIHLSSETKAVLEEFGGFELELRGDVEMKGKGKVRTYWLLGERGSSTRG
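Compound pre-incubated 30 min at room temperature on GloSensor-loaded HEK293 cells stably carrying hNpr1 and the pGS-40F cGMP biosensor. Stimulation uses hNppA at 0.1 nM final; luminescence is taken at baseline and 20 min post-agonist.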
Starred values were filed as active, the others as inactive; [ ] = remark or other dose. On the % scale 0 is the no-effect control and ±100 the full control effect; potency means the concentration at half of the fitted maximal effect. Some of the compounds tested, so the mix of outcomes need not match the whole.

Start of the data: the first 5 compounds, to show the layout:
Screening OC1(c2nc(Nc3cccc(C(F)(F)F)c3)n[nH]2)CCOCC1 returned NPR1 antag -6%[70.6 µM].
CCc1nncn1C1CCN(S(=O)(=O)c2ccc(F)cc2)CC1 was read as NPR1 antag 4%.
COc1ccccc1-c1[nH]nc2ncc(C(=O)N3C[C@@H](C)O[C@@H](C)C3)nc12 was read as NPR1 antag 1%[70.6 µM].
`Cn1ncc(N2CCC(NC(=O)C3CCOC3)CC2)cc1=O` (stereo unspecified) gave NPR1 antag -5%.
For O=C(c1cc(-c2ccc(F)cc2)nc2ccccc12)N1CCC(c2nc(C3CCOCC3)no2)C1 (stereo unspecified) the results were NPR1 antag -8%.

This part in full, from the first entry:
Screening OC1(c2nc(Nc3cccc(C(F)(F)F)c3)n[nH]2)CCOCC1 returned NPR1 antag -6%[70.6 µM].
CCc1nncn1C1CCN(S(=O)(=O)c2ccc(F)cc2)CC1 was read as NPR1 antag 4%.
COc1ccccc1-c1[nH]nc2ncc(C(=O)N3C[C@@H](C)O[C@@H](C)C3)nc12 was read as NPR1 antag 1%[70.6 µM].
`Cn1ncc(N2CCC(NC(=O)C3CCOC3)CC2)cc1=O` (stereo unspecified) gave NPR1 antag -5%.
For O=C(c1cc(-c2ccc(F)cc2)nc2ccccc12)N1CCC(c2nc(C3CCOCC3)no2)C1 (stereo unspecified) the results were NPR1 antag -8%.
For Cc1ccc(C2Cn3cnc(C(=O)N4CCC(C(=O)NCc5ccccc5)CC4)c3CO2)cc1 (stereo unspecified) the results were NPR1 antag -11%.
`COc1ccccc1C(=O)NC[C@H]1Cn2c(-c3ccc(Cl)cc3)cnc2CO1` gave NPR1 antag inconclusive.
Screening COc1ccc(-c2cc(-c3ccncc3)cn3cncc23)cc1 returned NPR1 antag 4%[70.6 µM].
`CCN1C(=O)CCC2(C(=O)Nc3ccc(OC)cc3OC)CCCC=C12` (stereo unspecified) gave NPR1 antag -11%.
Screening CCOc1cccc(CNC(=O)C2CCN(c3cc(C(F)(F)F)ncn3)CC2)c1 returned NPR1 antag inconclusive.
COc1ccc(-n2nc(C3CCCN(CC4CCCCC4)C3)[nH]c2=O)cc1 (stereo unspecified) was read as NPR1 antag 0%.
O=C(C1NCCc2[nH]cnc21)N1CCc2c(nc(CC3CC3)[nH]c2=O)C1 (stereo unspecified) was read as NPR1 antag -6%.
Screening O=C(O)Cn1nc(-c2ccncc2)nc1C1CCOC1 (stereo unspecified) returned NPR1 antag -1%.
For C[C@@H](NC(=O)C1CCOCC1)c1onc(-c2cccnc2)c1C(=O)O the results were NPR1 antag -1%[70.6 µM].
`COC(=O)c1ccc(CN2C(=O)[C@@H]3C[C@@H](O)CN3C3(CN(C4CCN(C(C)=O)CC4)C3)C2=O)cc1` gave NPR1 antag 5%.
`Cc1cc(C)n(CCC(=O)NC2CCCN(c3cc(-c4ccc(F)cc4)[nH]n3)C2)n1` (stereo unspecified) gave NPR1 antag 2%.
Screening O=C(CN1C(=O)COc2ccc(C(=O)COc3ccc(F)cc3)cc21)NCC1CCCO1 (stereo unspecified) returned NPR1 antag 4%.
Cc1cc(C(=O)N[C@H]2CCOC[C@H]2C2CCOCC2)ccc1N1CCOCC1 was read as NPR1 antag 2%.
For COCCn1c(=O)n([C@H]2CCCN(C(=O)NCCc3ccccc3)C2)c2ncccc21 the results were NPR1 antag 5%.
`COc1cc(C)c(-c2nc(CN3CCCC(CN)C3)c(C)o2)cc1C` (stereo unspecified) gave NPR1 antag -2%.

Overlap with the part before: three compounds; new compounds follow.
Cc1cc(C(=O)N[C@H]2CCOC[C@H]2C2CCOCC2)ccc1N1CCOCC1 was read as NPR1 antag 2%.
For COCCn1c(=O)n([C@H]2CCCN(C(=O)NCCc3ccccc3)C2)c2ncccc21 the results were NPR1 antag 5%.
`COc1cc(C)c(-c2nc(CN3CCCC(CN)C3)c(C)o2)cc1C` (stereo unspecified) gave NPR1 antag -2%.
For COC[C@H]1CCCN1C(=O)[C@@H](C)C1CC[C@@]2(C)CC[C@H](NC(=O)c3ccc(C#N)cc3)[C@@H](C)[C@@H]2[C@H]1O (stereo partly specified) the results were NPR1 antag 4%.
For O=C(Nc1ccccc1)[C@H]1O[C@H](CCN2CCN(c3ccc(F)cc3)CC2)CC[C@@H]1O the results were NPR1 antag -13%[70.6 µM].
Screening CCOc1ccc(C(=O)N2CCCC3(C2)NC(=O)N(Cc2cccc(Cl)c2)C3=O)cc1 (stereo unspecified) returned NPR1 antag 2%.
For Cc1cnc(C(=O)N2CC[C@H](CO)[C@H](NC(=O)C3CC3)C2)cn1 the results were NPR1 antag 3%.
`COc1ccc(CNC(=O)C[C@@H]2[C@H](O)CC[C@@H]3[C@]4(C)CO[C@@H](CNC(=O)C5CCCC5)O[C@@H]4CC[C@]32C)cc1` gave NPR1 antag 0%.
COc1ccccc1CNC(=O)c1cc2c(s1)CCN(C(=O)c1ccc(C)cc1)C2 was read as NPR1 antag -13%.
Screening COCCNC(=O)C1CN(Cc2ccccc2)C(=O)N1 (stereo unspecified) returned NPR1 antag 0%[70.6 µM].
O=C(COc1ccc(F)cc1)N1CCC2(CC1)NCCc1c2[nH]c2ccccc12 was read as NPR1 antag 3%.
`CC(C)=CC(=O)NCCC[C@H](NC(=O)[C@@H]1[C@@H](NC(=O)Nc2ccc(F)cc2F)CCN1C(=O)C=C(C)C)C(N)=O` gave NPR1 antag 4%.
For CC(=O)N[C@@H]1[C@@H](NC(=O)c2cn[nH]n2)[C@H]2CCO[C@H]21 the results were NPR1 antag 2%.
`O=C(c1ccccn1)N1CCC(Nc2cccnc2)C1` (stereo unspecified) gave NPR1 antag -1%.
`Fc1cccc(Nc2cnc3ccc(-c4ccccc4)nn23)c1` gave NPR1 antag -21%[70.6 µM].
Screening COc1ccc(-c2noc([C@@H]3C[C@@H](O)CN3Cc3ncc[nH]3)n2)cc1 returned NPR1 antag -23%[70.6 µM].
Screening O=C(Cn1ccn2nc(-c3ccc(F)cc3)c(CO)c2c1=O)Nc1ccccc1 returned NPR1 antag 2%.
For O=C(O)c1cccc(CN2CC(CNc3ccccc3)C3(C2)CN(c2ccccc2)C3)c1 (stereo unspecified) the results were NPR1 antag -3%[70.6 µM].
`Cc1cc(N2CCC3(CC2)C(C(=O)O)CC(=O)N3C)ccn1` (stereo unspecified) gave NPR1 antag 5%.
COc1ccc(Nc2cc3c(cn2)CN(C)CCN3)cc1OC was read as NPR1 antag -1%[70.6 µM].
`CCOCCn1c(=O)n(CCn2cc(Cl)cn2)c2cc(C(=O)O)cnc21` gave NPR1 antag 8%.
Screening Cc1cccc(OCC2(CNC(=O)c3cccc(F)c3)C[C@@H](O)[C@@H](O)C2)n1 (stereo partly specified) returned NPR1 antag 1%[70.6 µM].
Screening CCNC(=O)N1CCN(Cc2c(C)noc2C)CC1 returned NPR1 antag -1%.
Screening CCCn1nc(C)cc1CN(C)C(=O)c1ccc2c(c1)C(O)CCCCCN2CCOC (stereo unspecified) returned NPR1 antag 1%.
`CC1=C(C(=O)N2CC3CC(C2)[C@H]2CCCC(=O)N2C3)C2(CCCCC2)OC1=O` (stereo partly specified) gave NPR1 antag 3%.
C[S+](=O)([O-])N1CCC2(CC1)C(=NC1CCCCC1)NC(=O)N2c1cccnc1 was read as NPR1 antag 0%.
For COc1ccc(NC(=O)c2ccc3c(c2)OCCN(c2ccccc2)C3)c(F)c1 the results were NPR1 antag -4%[70.6 µM].
For COCCOCc1nc(C2CCN(C(=O)Nc3ccccc3)CC2)no1 the results were NPR1 antag 2%.
`O=C(c1ccccc1)N1CCc2nc(-c3ccccc3)nc(-c3ccc(Cl)cc3)c2C1` gave NPR1 antag 0%.
For O=C(N[C@H](Cc1ccccn1)C1CC(O)C1)c1cccc(-n2cnnc2)c1 (stereo partly specified) the results were NPR1 antag 1%.
`Cc1ccccc1N1Cc2c(NCC3CC3)ncnc2N(C)CC1=O` gave NPR1 antag 0%.
Screening Cn1cccc1C(=O)C(=O)N1CCN(c2cccc(Cl)c2)C(=O)C1 returned NPR1 antag -1%.
For CCOc1ccc(CC(=O)NC2CCN(c3cc(-c4ccc(F)cc4)[nH]n3)CC2)cc1OCC the results were NPR1 antag 0%.
For CNC(=O)[C@@H]1CN(Cc2cccc(OC)c2)C[C@H]1CO the results were NPR1 antag 3%.
CN1CC(=O)N(c2ccccc2)Cc2c(NCCO)ncnc21 was read as NPR1 antag 6%[70.6 µM].
`OCCc1cc(CC2(NCc3ccccc3F)COC2)no1` gave NPR1 antag 4%[70.6 µM].
CN(C)c1cccc(C(=O)N2CCC3(CC2)N=C(c2ccc(Br)cc2)NO3)c1 was read as NPR1 antag -29%.
CCOc1ccccc1CN1CCCCCCNC(=O)[C@@H]2CCC[C@@H]21 was read as NPR1 antag -4%.
For CC(=O)N1CCC(NC[C@H]2O[C@@H]3C[C@@H](CC(=O)NCc4cnn(C)c4)O[C@@H]3[C@@H]2O)CC1 the results were NPR1 antag 0%.
`Cc1noc(C)c1-c1cc2cc(CNC3CCOCC3)oc2c(NC2CCN(C)CC2)n1` gave NPR1 antag -7%[70.6 µM].
`Cn1cc(CNC(=O)C[C@@H]2C[C@H]3O[C@H](CN)[C@@H](O)[C@H]3O2)cn1` gave NPR1 antag -1%[70.6 µM].
For CCCCN1CCN(C(=O)[C@@]23CCCC[C@H]2N(CCC(C)C)C(=O)CC3)CC1 the results were NPR1 antag 2%.
COCc1nc(C2CC(N)C2)cc(N(C)Cc2csc(C(C)C)n2)n1 (stereo unspecified) was read as NPR1 antag 0%.
Screening O=C1c2c(nc(COc3cc(F)cc(F)c3)n2Cc2ccccc2)NCCN1Cc1ccccc1 returned NPR1 antag -30%.
Cc1ccc(C(=O)N2CCC3(CC2)[C@H](O)C[C@@H]3O)cc1N1CCNC1=O was read as NPR1 antag 0%.
`O=C1NC2(CN(Cc3ccsc3)C2)Oc2ccccc21` gave NPR1 antag -19%[70.6 µM].
`Cc1ccc(C(=O)N[C@@H]2CN(c3ccncn3)C[C@H]2CN(C)C)s1` gave NPR1 antag 0%.
For O=C1NCCOCCCN(S(=O)(=O)c2cccs2)[C@H]2CCC[C@@H]12 the results were NPR1 antag 2%.
O=C(N[C@@H]1CN(Cc2ccccc2)C[C@H]1CO)c1ccc(=O)[nH]c1 was read as NPR1 antag -3%.
O=C(NC1CCCc2c1[nH]c1ccccc21)c1ccccn1 (stereo unspecified) was read as NPR1 antag -3%.
CN(Cc1cccn1C)C(=O)c1ccc(C(F)(F)F)cc1 was read as NPR1 antag 9%[70.6 µM].
For O=C1CCN(Cc2ccncc2)CCCC(C(=O)N2CCCC2)CCN1 (stereo unspecified) the results were NPR1 antag 4%.
CCc1ccc(CNC(=O)CCc2conc2-c2cccc(C)c2)cc1 was read as NPR1 antag 2%.
Screening COc1ccc(C2Cn3cnc(C(=O)N4CCC(C(=O)Nc5cccc(Cl)c5)CC4)c3CO2)cc1 (stereo unspecified) returned NPR1 antag -24%.
CN1C(=O)[C@@H]2C[C@@H](O)CN2C2(CN(C3CCCCC3)C2)C1=O was read as NPR1 antag -2%[70.6 µM].
For Cc1cccc(N2CCN(C(=O)c3ccc4c(c3)N(C)C3CCCCCN3C4=O)CC2)c1 (stereo unspecified) the results were NPR1 antag -7%.
Screening CC(C)C[C@@H]1N[C@H](C(=O)NC(C)C)Cc2c[nH]c3cccc1c23 returned NPR1 antag 1%[70.6 µM].
`Cc1nc(-c2ccc(F)cc2)n(Cc2nc(-c3ccc(Cl)cc3)oc2C)c(=O)c1CCO` gave NPR1 antag -10%.
Screening Cn1nnnc1C1CCCN(C(=O)c2ccc(F)cc2)C1 (stereo unspecified) returned NPR1 antag 8%.
For Fc1ccccc1-c1noc(-c2nc(-c3ccccc3F)no2)n1 the results were NPR1 antag 3%.
For COc1ccc(CN2CCC[C@H]2c2nc(-c3cncnc3N)no2)c(O)c1 the results were NPR1 antag 6%[70.6 µM].
`COc1ccc2c(c1)nc1n2[C@@H](CNC2CCOCC2)COC1` gave NPR1 antag 4%[70.6 µM].
Screening COc1ccc(N2CCN(C(=O)CCC[C@@H]3[C@H]4CCCN5CCC[C@@H](CN3C(C)=O)[C@@H]45)CC2)cc1 returned NPR1 antag -1%.
`OCC1CN(c2ncccn2)CC12CCN(Cc1ccncc1)CC2` (stereo unspecified) gave NPR1 antag 3%.
For CCOC(=O)c1oc2ccc(S(=O)(=O)NCC3Cn4cccc4C(=O)N3C)cc2c1C (stereo unspecified) the results were NPR1 antag inconclusive.
For Cc1nc(-c2c3n(c(=O)n(CC(=O)Nc4ccc(C)c(F)c4)c2=O)CCCCC3)no1 the results were NPR1 antag -1%.
`O=C(NC[C@H]1OC[C@@H](NCc2cnc[nH]2)[C@@H]1O)c1ccncc1` gave NPR1 antag -1%[70.6 µM].
For COc1ccc(CC(=O)N2CCc3nc(C)nc(-c4ccc(Cl)cc4)c3CC2)cc1 the results were NPR1 antag -18%.
`CC(C)N1C[C@H](O)C[C@H]1c1nnc2n1CCN(C(=O)c1ccnn1C)CC2` gave NPR1 antag 3%.
Screening O=c1[nH]c(=O)n2c(c1-c1ncon1)CCCC2 returned NPR1 antag -2%.
COc1ccc(CN2C[C@@H](CO)[C@H](NC(=O)C3CCC3)C2)cc1 was read as NPR1 antag -1%.
`CC(Cc1cnccn1)Nc1ccc(-c2nc(-c3cccc(Cl)c3)no2)cn1` (stereo unspecified) gave NPR1 antag inconclusive.

Compound activity (PubChem)
